CBX7 inh – CBX7 inhibition, primary AlphaScreen | 1.1% of 66,000 active | AlphaScreen His6-CBX7 / biotin-H3K27me3 peptide binding; stronger effect = lower value | O95931 | normalised signal (fraction of DMSO) (no concentration beside the values); in the data active = normalised signal below about 0.5;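 also: 100 nL library stock added to about 20 µL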
Target sequence (O95931 whole entry, looked up): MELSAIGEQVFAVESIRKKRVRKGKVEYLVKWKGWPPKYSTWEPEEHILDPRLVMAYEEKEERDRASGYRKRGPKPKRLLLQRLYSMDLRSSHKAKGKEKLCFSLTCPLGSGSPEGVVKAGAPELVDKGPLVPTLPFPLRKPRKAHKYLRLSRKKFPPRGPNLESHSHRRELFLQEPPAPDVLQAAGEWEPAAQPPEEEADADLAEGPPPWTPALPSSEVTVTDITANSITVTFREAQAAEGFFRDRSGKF
CBX7 inh z-score – recorded beside CBX7 inh, whose call it bears; z-score; measured here: z-score of CBX7 signal; some inactives read as strong as hits; reference of the scale not given here;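 same signal on another scale; lower means less binding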
* hit, by the source's call; & = joins results of further samples. Only part of the results is shown (hit frequency here may not be typical).

SMILES | CBX7 inh | CBX7 inh z-score
COc1ccc(-c2cc(C(=O)Nc3nn[nH]n3)c3ccccc3n2)cc1OC | 1.05 | 0.062
CC(=O)Nc1ccc(-n2c(/C=C\c3ccc(F)cc3)nc3ccccc3c2=O)cc1 | 1.14 | 2.14
O=S(=O)(c1ccccc1)c1nc(-c2ccccc2)oc1SCc1ccc(F)cc1 | 1.01 | 0.0698
CCN(c1ccccc1)S(=O)(=O)c1ccc2[nH]cc(C(=O)NCCN3CCOCC3)c(=O)c2c1 | 0.992 | -0.234
COc1ccc(-n2cnc3cc(NS(=O)(=O)c4ccccc4)ccc32)cc1 | 0.772 | -2.7
O=C(NCCc1ccccc1)C1=CCN(S(=O)(=O)c2ccccc2)CC1 | 1.01 | 0.567
COC(CNC(=O)c1cc(-c2ccncc2)nc2ccc(S(=O)(=O)N3CCOCC3)cc12)OC | 0.982 | -0.324
O=C(CN1C(=O)COc2ccc(S(=O)(=O)N3CCOCC3)cc21)N1CCN(c2ccccn2)CC1 | 1.11 | 1.73
CCc1nnc(NC(=O)c2ccc(S(=O)(=O)N3CCCCCC3)cc2)o1 | 0.043* | -10.6*
O=C(c1ccc2c(c1)N(Cc1ccccc1F)C(=O)c1ccccc1S2(=O)=O)N1CCCCC1 | 1.04 | 0.877

Pulled by structure from above, three records:
SMILES | CBX7 inh | CBX7 inh z-score
O=C(NCCc1ccccc1)C1=CCN(S(=O)(=O)c2ccccc2)CC1 | 1.01 | 0.567
O=C(CN1C(=O)COc2ccc(S(=O)(=O)N3CCOCC3)cc21)N1CCN(c2ccccn2)CC1 | 1.11 | 1.73
COc1ccc(-n2cnc3cc(NS(=O)(=O)c4ccccc4)ccc32)cc1 | 0.772 | -2.7

Remaining list, next part:
SMILES | CBX7 inh | CBX7 inh z-score
Cc1cccc(C)c1Nc1c(-c2ccsc2)nc2ccccn12 | 0.908 | -2.7
Cc1c(Cl)cccc1NC(=O)CC(Cc1ccccc1)C(=O)O (centres undefined) | 1.09 | 1.34
CCOC(CCNC(=O)c1ccc(NC2=NC3CS(=O)(=O)CC3S2)cc1)OCC (centres undefined) | 1.28 | 2.11
O=C(NCCc1ccc(Cl)cc1)C1CC(=O)N(C2CCCC2)C1 (centres undefined) | 1.03 | 0.871
Cc1ccc(NC(=O)c2c(-c3ccccc3)noc2C)cc1Cl | 0.972 | -0.555
O=C(Nc1cccc(F)c1)c1oc2ccccc2c1NC(=O)C1CCCCC1 | 1.03 | 0.333
O=C(Nc1ccccc1F)c1cc2c(s1)-c1ccccc1OC2 | 1.53 | 15.1
Cc1ccccc1NC(=O)Cn1nc(Cc2ccncc2)c2ccccc2c1=O | 1 | 0.0683
CC(C)OCCCNC(=O)c1ccc2c(c1)N(Cc1ccccc1F)C(=O)c1ccccc1S2=O (centres undefined) | 1.06 | 0.865
Cc1cc(N2CCCCC2)nc2ccc(NC(=O)CCC(=O)O)cc12 | 1.09 | 3.66
COc1ccc(-c2cc(C(F)(F)F)n3nc(C(=O)NCc4ccccc4)c(Cl)c3n2)cc1OC | 1.01 | 0.285
O=C(Nc1cccc(-c2csc(-c3ccccc3)n2)c1)c1ccccc1Cl | 1.04 | 1.77
COc1ccccc1N1CCN(C(=O)Cc2c(C(=O)O)[nH]c3ccc(Cl)cc23)CC1 | 0.94 | -0.64
CCCN(CCC)C(=O)Cn1ncc2c1-c1cc(C)ccc1OC2 | 1.09 | 1.73
CCOc1ccc2c(c1)c(=O)c(S(=O)(=O)c1ccccc1)cn2CC(=O)Nc1ccc(Cl)cc1 | 1.04 | 0.556
O=C(O)c1ccc(Nc2nc(-c3ccc(Cl)cc3)cs2)cc1 | 0.986 | -0.381
COc1ccc(NC(=O)C2CCN(S(=O)(=O)c3ccc(OC)c(OC)c3)CC2)c(OC)c1 | 1.06 | 2.73
Cc1ccccc1CN1C(=O)c2ccccc2Sc2ccc(C(=O)N3CCOCC3)cc21 | 1.03 | 1.11
Cc1ccc(-c2ccc(=O)n(CCC(=O)NCc3ccc(F)cc3)n2)cc1 | 1.04 | 1.29
CCc1ccccc1NC(=O)c1cnn(-c2ccc(F)cc2)c1C1CCN(C(=O)OC(C)(C)C)CC1 | 0.973 | -1.06
Cc1ccc2oc(-c3cccc(NC(=O)COc4ccc(C)c(C)c4)c3)nc2c1 | 1.33 | 3.18
CC(C)OC(=O)c1c(NC(=O)c2ccc(Cl)cc2)sc2c1CCCC2 | 1.68 | 1.7
COC(CNC(=O)CN1CCN(Cc2ccc(F)cc2)C1=O)OC | 0.958 | -0.555
CCOc1ccc(-c2cc(C(=O)NCCCN3CCN(CC)CC3)c3ccccc3n2)cc1 | 1.08 | 1.57
CCc1nc(-c2ccccc2)cc2cc(OC)c(OC)cc12 | 1.1 | 3
Cc1cc(N2CC(C)CC(C)C2)n2nc(-c3ccccc3)cc2n1 (centres undefined) | 1.07 | 0.726
O=C(CSc1ccc2nnc(-c3ccccc3)n2n1)Nc1ccccc1 | 0.982 | -0.61
CCOCCCNC(=O)c1cc(=O)[nH]c2ccc(S(=O)(=O)N3CCCCC3)cc12 | 1.06 | 0.646
COc1cc(-c2nc3sc4c(c3c(=O)[nH]2)CCCC4)cc(Cl)c1OCCOc1ccccc1 | 1.11 | 2.32
COc1ccc(C2CC(C(F)(F)F)n3nc(C(=O)NCCN4CCOCC4)cc3N2)cc1 (centres undefined) | 1.02 | 0.41

Given with values under each structure: entries from further up.
Value order – CBX7 inh	CBX7 inh z-score
Cc1ccc2oc(-c3cccc(NC(=O)COc4ccc(C)c(C)c4)c3)nc2c1
    1.33	3.18
CCOCCCNC(=O)c1cc(=O)[nH]c2ccc(S(=O)(=O)N3CCCCC3)cc12
    1.06	0.646
CCc1nc(-c2ccccc2)cc2cc(OC)c(OC)cc12
    1.1	3
COc1cc(-c2nc3sc4c(c3c(=O)[nH]2)CCCC4)cc(Cl)c1OCCOc1ccccc1
    1.11	2.32
COC(CNC(=O)CN1CCN(Cc2ccc(F)cc2)C1=O)OC
    0.958	-0.555
CC(C)OC(=O)c1c(NC(=O)c2ccc(Cl)cc2)sc2c1CCCC2
    1.68	1.7

Already shown: entries from further up.
SMILES | CBX7 inh | CBX7 inh z-score
COC(CNC(=O)CN1CCN(Cc2ccc(F)cc2)C1=O)OC | 0.958 | -0.555
CCOc1ccc(-c2cc(C(=O)NCCCN3CCN(CC)CC3)c3ccccc3n2)cc1 | 1.08 | 1.57
CCc1nc(-c2ccccc2)cc2cc(OC)c(OC)cc12 | 1.1 | 3

The listing continues.
SMILES | CBX7 inh | CBX7 inh z-score
O=C(CSc1ncnc2sc3c(c12)CCC3)Nc1ccccc1C(F)(F)F | 0.992 | -0.01
CCCCN(CC)S(=O)(=O)c1ccc(C(=O)Nc2sc3c(c2C(=O)OC)CCN(C)C3)cc1 | 1.09 | 4.72
O=C(NCCCN1CCOCC1)NC1(c2ccccc2)CC1 | 1.06 | 1.06
O=C(NC1CCCCC1)c1cc(-c2ccccc2O)on1 | 1.02 | 0.708
CCC1=Nc2cc(C(=O)NCCN3CCCCCC3)ccc2Sc2ccc(C)cc21 | 0.942 | -0.623
O=C(c1ccc(Cl)nc1)N1CCNc2ccccc2C1 | 0.975 | -0.305
O=c1cnn(Cc2ccccc2)c(=O)n1Cc1ccccc1 | 0.835 | -1.68
Cc1ccc(NC(=O)CS(=O)(=O)Cc2nc(-c3ccccc3C)oc2C)c(C)c1 | 0.983 | -0.31
COc1cccc(NC(=O)CNC(=O)c2nn(-c3ccc(OC)c(Cl)c3)c(=O)c3ccccc23)c1 | 1.05 | 0.955
CCC1=Nc2cc(C(=O)NCc3ccccc3OC)ccc2Sc2ccc(Cl)cc21 | 0.979 | -0.424
O=C(NCCc1ccc(Cl)cc1)C1CCCN(S(=O)(=O)c2cccs2)C1 (centres undefined) | 1.02 | 0.365
O=C(NCCCn1ccnc1)c1cc(-c2ccc(Cl)c(Cl)c2)on1 | 0.892 | -2.99
CCCCCCNC(=O)c1cnn2c(C)c(Cc3c(F)cccc3Cl)c(C)nc12 | 1.08 | 0.485
Cc1ccc(-c2nc(CS(=O)(=O)CC(=O)N3CCCCCC3)c(C)o2)cc1 | 0.991 | -0.00909
CCC1CCCCN1CCCNC(=O)C(NC(=O)C1CCC(C)CC1)C(C)C (centres undefined) | 1.06 | 1.8
COc1ccc(OCC(=O)Nc2cc(-c3nnc(OC)c4ccccc34)ccc2N2CCOCC2)cc1 | 0.893 | -2.39
O=C(c1cccc2c1C(=O)N(Cc1cccnc1)C2)N1CCN(Cc2ccccc2)CC1 | 1.06 | 1.45
CCOc1ccc(C(=O)Nc2ccc(NC(=O)c3ccccc3)c(C)c2)cc1Br | 1.17 | 1.21
Cc1nc(Nc2ccccc2)c2oc3ccccc3c2n1 | 1.05&1.03 | 0.676&0.106
COc1ccccc1-c1c(C)nn2c(NCC3CCCO3)cc(C)nc12 (centres undefined) | 1.06 | 0.617
CCc1cccc(NC(=O)c2cnn(-c3ccc(C)c(C)c3)c2C2CCNCC2)c1 | 0.904 | -1.85
CCCCc1nn(-c2ccccc2F)c2c1C(=O)CC(C)(C)C2 | 1.07 | 1.59
Cc1ccc(CN2CCN(CC(=O)NC(C)CCc3ccccc3)C2=O)cc1 (centres undefined) | 0.937 | -1.01
COc1ccc(-c2cc(C(=O)NCc3ccc4c(c3)OCO4)c3ccccc3n2)cc1 | 0.898 | -0.69
Cc1ccc(-n2cc(C(=O)Nc3ccccc3C(F)(F)F)c3ccccc3c2=O)cc1C | 0.949 | -0.699
CCNc1cc(C)c(C)cc1-n1cnc(-c2ccc([N+](=O)[O-])cc2)c1 | 0.908 | -1.19
CCOc1ccc(OCC)c(NC(=O)CC2Oc3ccc(C)cc3NC2=O)c1 (centres undefined) | 1.04 | 1.7
CCN(CC)CCNC(=O)c1cc(Nc2cc(C)cc(C)c2)nc2ccccc12 | 1.27 | 7.55
Cc1ccc(S(=O)(=O)C2(C(=O)NCCc3ccc(Cl)cc3)CC2)cc1 | 1.02 | 0.327
Cc1cc(N2CCCCC2)nc2ccc(NC(=O)CCC(=O)NCCC(C)C)cc12 | 1.04 | 1.92
O=C(Nc1ccc(S(=O)(=O)Nc2ncccn2)cc1)c1cncc(Br)c1 | 1.01 | 0.405
CCCCNC(=O)c1ccc2c(c1)NC(=O)c1ccccc1N2 | 0.877 | -1.88
COc1cccc(-c2cc(C(=O)Nc3c(C)nn(Cc4ccccc4C)c3C)no2)c1 | 1.01 | 0.0566
COc1ccc(-c2cc(-c3ccc(OC)c(OC)c3)n[nH]2)c(O)c1 | 0.809 | -7.86
CCC(C)NC(=O)Cn1nc(-c2ccc(Cl)cc2)ccc1=O (centres undefined) | 0.973 | -1.22
CC(=O)OC(C)(C)C1Cc2cc3ccc(=O)oc3cc2O1 (centres undefined) | 1.05 | 2.11
COc1ccccc1N1C(=O)CC(N2CCC(C(N)=O)CC2)C1=O (centres undefined) | 1.07 | 0.975
Cc1ccc(-n2nc3ccc(NC(=O)c4ccccc4I)cc3n2)cc1C | 0.972 | -0.836
CC1(C)CC(=O)c2cnc(Nc3nc4ccccc4[nH]3)nc2C1 | 1.02 | 0.229
CCOc1ccc(-c2nc3cc(NCc4cc(Br)ccc4O)ccc3o2)cc1 | 1.03 | 0.756
Cc1cc(N2CCN(c3ccccn3)CC2)nc2ccccc12 | 1.13 | 4.5
COc1ccc(N2CCN(c3ncnc4sc(C(=O)Nc5cccc(C(F)(F)F)c5)c(C)c34)CC2)cc1 | 0.963 | -0.0649
CCC(C(=O)NCCc1ccc(Cl)cc1)n1ncc2ccccc21 (centres undefined) | 0.947 | -0.997
Cc1ccc(-c2noc(COc3ccc(Br)cc3)n2)cc1 | 1.07 | 2.37
COc1ccc(N2C(=O)CC(c3ccc(OC(C)C)cc3)C2=O)cc1 (centres undefined) | 0.977 | -0.849
COc1ccc(CN2C(=O)Cn3cccc3C2C(=O)NC2CCCCCCC2)cc1 (centres undefined) | 0.96 | -0.52
Cc1ccc(-n2cnc3cc(NCc4ccc(Cl)cc4)ccc32)cc1 | 0.542 | -2.15
CC1CCN(C(=O)Cc2c(C(=O)O)[nH]c3ccc(Cl)cc23)CC1 | 1.16 | 1.68
COc1ccc(-n2nnc3c(=O)n(Cc4cccc(F)c4)cnc32)cc1 | 0.927 | -1.4
Cc1ccc(NC(=O)C(NS(=O)(=O)c2ccc3c(c2)CCC(=O)N3)c2ccccc2)cc1F (centres undefined) | 0.968 | -1.28

Going on with the list.
SMILES | CBX7 inh | CBX7 inh z-score
Cn1c2ccccc2c2c(C(=O)NCC3CCCO3)cn(C3CCCC3)c(=O)c21 (centres undefined) | 0.959 | -0.0412
COc1ccc(Cl)cc1NC(=O)Cn1nc(Cc2ccncc2)c2ccccc2c1=O | 0.995 | -0.14
CCc1nc(NCCCN(C)C)c(C#N)c2c1COC(C)(C)C2 | 1.08 | 0.938
O=C(Cn1nc(Cc2cccnc2)c2ccccc2c1=O)Nc1nccs1 | 0.936 | -2.1
CC1CCN(CC(O)c2ccc3cc[nH]c3c2)CC1 (centres undefined) | 1.01 | 0.188
CCCN(CCC)CCCNC(=O)c1cnc(Nc2ccc(OC)cc2)c2ccccc12 | 1.09 | 3.62
CC(NC(=O)C1CCC(CNS(=O)(=O)c2cccc3cccnc23)CC1)c1ccccc1 (centres undefined) | 0.986 | -0.165
CCOc1ccc(NC(=O)CN2C(=O)CC(c3ccccc3)Sc3ccccc32)cc1 (centres undefined) | 1.01 | 0.123
CCOC(=O)C1CCN(C(=O)c2ccccc2NC(=O)c2cccc(F)c2)CC1 | 0.98 | -0.201
Cc1cc(C)c(NC(=O)c2c(-c3ccccc3)noc2C)c(C)c1 | 1.05 | 1.44
CCOC(=O)c1cnc2c(C)c(Cl)ccc2c1Nc1ccc(OC)c(OC)c1 | 0.848 | -3.3
Clc1ccccc1N1CCN(c2nc(-c3ccccc3)c3cc(Br)ccc3n2)CC1 | 1.65 | 2.55
